# Screening data as filed in PubChem.
# HSD17B inh – HSD17B dehydrogenase inhibition; Q99714; recombinant HSD17B10, NADH fluorescence kinetic; many of its hits are not listed in these tables; Potency, µM (series often up to 57.1 µM), without a hit: top-dose activity change, negative = inhibition, actives largely listed as inhibitors; actives 7.6% (n = 75,000); active = well fitted inhibition curve with a large enough effect; inconclusive = small, poorly fitted or top-dose-only effect; inactive = no such curve, though single readings can be large or run the other way;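 note: the protocol describes HADH2 (HSD17B10) and not the HSD17B4 of the title; nearly all actives have a fitted effect of over 70% in size; most hits overshoot -100% by far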
#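 Activity followed as NADH fluorescence increase (ex 360, em 450 nm) every 30 seconds for 4 min, using final 90 uM beta-hydroxybutyryl CoA and 1 mM NAD+. Recombinant His-tagged enzyme, 20 nM, pH 9.0 Tris buffer, 15 min compound preincubation.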
# Active calls of the source: *; ? = inconclusive; [ ] = another dose, or the depositor's remark. % is set by controls: 0 for no effect and ±100 for the full control effect; potency is the fitted concentration of half-maximal effect.
no.	compound	HSD17B inh
1	Cc1ccc(S(=O)(=O)CCC(=O)OCC(=O)N2CC(=O)Nc3ccccc32)cc1	4.7%
2	C=CCNc1nc2c(c(=O)[nH]c(=O)n2C)n1Cc1cccc(C)c1	?
3	O=C(NCc1ccc2c(c1)OCO2)c1ccccn1	1.3%
4	CCOc1ccc(OCC)c(NC(=O)C2CCCN(c3nc(C)cc(C)n3)C2)c1 (stereo unspecified)	-6.4%
5	Cc1cc(=O)oc2c1c(C)nn2-c1nn[nH]n1	-5.6%
6	C=CCC1C=CC(OC(=O)OCC)C(COC(=O)OCC)O1 (stereo unspecified)	6.8%[11.4 µM]
7	Cc1ccc(NS(=O)(=O)c2ccc(OCC(=O)NCc3ccco3)cc2)cc1	-17.5%
8	CCCCNC(=O)C1CCCN(S(=O)(=O)c2ccc(-n3cnnn3)cc2)C1 (stereo unspecified)	3.3%
9	COc1ccc(OC)c(NC(=O)C2CCCCC2C(=O)O)c1 (stereo unspecified)	-1.9%
10	CN(c1ccc(C(=O)O)cc1)S(=O)(=O)c1ccc(Cl)cc1	6.2%
11	C=CCOC(=O)C(C(C)=O)C(NC(=O)OC)c1ccc(F)cc1 (stereo unspecified)	5.4%[11.4 µM]
12	COc1ccc(CN(CC(=O)NCc2ccco2)C(=O)CCC(=O)Nc2nccs2)cc1	3.9%
13	CCOc1ccc(OCC)c2sc(C)nc12	?
14	Cc1noc(C)c1CSc1nc2ccccc2c(=O)n1-c1ccc(F)cc1F	-1.9%
15	CN(C)c1ncc2nc(CCc3ccccc3)c(=O)n(Cc3ccc(F)cc3)c2n1	31.6µM*
16	O=C(Cn1cnc2c(oc3ccccc32)c1=O)c1ccccc1	7.2%
17	CC(=O)NCC(=O)OC(C)C(=O)Nc1ccc(C(C)=O)cc1 (stereo unspecified)	3.4%
18	O=C1OCc2cc(NS(=O)(=O)c3cccs3)ccc21	10.6%
19	CC(O)c1cccc(NC(=O)CCC(=O)O)c1 (stereo unspecified)	4.2%
20	CCN1CCCC1CNC(=O)Cn1cnc2sc(C)c(S(=O)(=O)N3CCC(C)CC3)c2c1=O (stereo unspecified)	-3.3%
21	Cn1c(=O)cc(SCC(=O)NCC2COc3ccccc3O2)c2ccccc21 (stereo unspecified)	-1.5%
22	N#Cc1ccc(CN2CCC3(CC2)CCN(C(=O)c2csnn2)CC3)cc1	6.6%
23	c1ccc(Nc2nc(N3CCOCC3)nc(N3CCOCC3)n2)cc1	9.1%
24	Cc1ccc(C)c(O)c1	0.8%
25	CC(=O)Oc1ccc(/C=c2\sc3ncnn3c2=O)cc1	-7.8%
26	Cc1cccc2cc(CN(Cc3nnnn3Cc3ccccc3)C3CCCC3)c(=O)[nH]c12	31.6µM*
27	C=CCSc1nc2c(cc1C#N)CCC2	-23.9%
28	CSc1nc2c(c(=O)n1-c1ccc(C)cc1)SCC2	0.5%
29	COc1ccccc1-c1cc(C(F)(F)F)nc(S(=O)(=O)CCCC(=O)NC(C)C)n1	78.9%[activator]
30	CCn1c(COc2cccc(C)c2)nnc1SCC(=O)Nc1cccc(C(=O)OC)c1	-4.8%
31	COc1ccccc1NC(=O)CNC(=O)c1ccccc1	2.3%
32	CCSc1nnc(-c2ccc(OC)cc2)o1	4.0%
33	CCCN(CCc1ccccc1)[C@H]1CCc2c(O)cccc2C1	-7.0%
34	CC(Sc1nnc(-c2ccc(Cl)cc2)n1C)C(N)=O (stereo unspecified)	11.2%
35	CSc1nnc(-c2ccc(S(=O)(=O)N3CCCC3)cc2)n1C	31.6µM*
36	COc1ccc(OC)c(S(=O)(=O)N2CCCc3ccccc32)c1	3.4%
37	N#Cc1nc(Cc2cccc3ccccc23)oc1N1CCC(C(N)=O)CC1	7.0%
38	COCCn1c(=O)c(-c2cn(C)c3ccccc23)nc2cnc(N3CCNCC3)nc21	3.4%
39	CN(C)c1ccc(C2N3CC4(C)CN2CC(C)(C3)C4O)cc1 (stereo unspecified)	-5.9%
40	CCn1c(CSc2nc(C)cs2)nc2cc(S(=O)(=O)N(C)C)ccc21	10.1%
41	CCOCCCn1c(=S)[nH]c2cc(C(=O)N3CCN(C)CC3)ccc2c1=O	-5.0%
42	CCOc1ccccc1N1CCN(S(=O)(=O)c2ccc3c4c(cccc24)C(=O)N3)CC1	-1.1%
43	COc1cc2c(cc1NC(=O)C1CCCO1)oc1ccccc12 (stereo unspecified)	-8.8%
44	Cc1ccc(Cn2c(=O)c3ccccc3n3c(SCC(=O)N4CCCCC4C)nnc23)cc1 (stereo unspecified)	-2.4%
45	CC(C)CC(=O)Nc1cccc(-c2cn3ccsc3n2)c1	0.1%
46	O=C(NCc1cn2ccsc2n1)c1c(F)cccc1Cl	7.1%
47	COC(=O)c1ccc(CSc2nnnn2Cc2ccccc2)cc1	-14.2%
48	COc1ccc(C2CC(c3ccc(Br)cc3)Nc3nc(N)nn32)cc1 (stereo unspecified)	0.3%
49	C=CCn1c(SCC(=O)NCCCC)nc2scc(-c3ccco3)c2c1=O	?
50	CC(=O)c1c(C)[nH]c(C(=O)OCn2nnc3ccccc3c2=O)c1C	-3.7%
51	CCOc1ccc(C)cc1S(=O)(=O)NC1CCCCC1	5.6%
52	CN(CCCC(=O)Nc1ccncc1)S(=O)(=O)c1ccc(Cl)cc1	-5.0%
53	c1ccc2c(N3CCNCC3)nc(-c3ccoc3)nc2c1	1.8%
54	CC(=O)c1c(C)[nH]c(C(=O)COC(=O)CNS(=O)(=O)c2ccccc2)c1C	-8.6%
55	COc1cccc(NC(=O)N2CCN(c3ccc(C(F)(F)F)cn3)CC2)c1	?
56	CCCCc1c(O)nc(SCC(=O)NCC2CCCO2)[nH]c1=O (stereo unspecified)	9.8%
57	CCCNc1nc(N2CCOCC2)nc(N2CCOCC2)n1	2.2%
58	O=C(CSc1nc2c(cnn2-c2ccc(F)cc2)c(=O)[nH]1)N1CCCCC1	-1.9%
59	Cc1ccc(-c2nn(-c3ccccc3)cc2/C=C(\C#N)c2cccc(C#N)c2)o1	-8.6%
60	CCOCCCNC(=O)CSc1ccccc1	2.8%

# Next structures follow:
no.	compound	HSD17B inh
61	O=C(NCc1ccco1)Nc1cccs1	?
62	COCC(=O)Nc1nc2n(n1)C(c1ccccc1Cl)CC(c1ccc(OC)cc1)N2 (stereo unspecified)	-2.1%
63	N#Cc1cn(Cc2ccccc2)c2ccccc12	-9.1%
64	Cc1ccc2c(CC(=O)NCC3COc4ccccc4O3)coc2c1 (stereo unspecified)	1.7%
65	CCN1CCN(c2ncnc3c2oc2nc(C(C)C)c4c(c23)CCC4)CC1	?
66	CCOC(=O)c1c(C)[nH]c(C(=O)Nc2ccc3c(c2)OCO3)c1C	-7.0%
67	COc1ccc(NC(=O)C(C)Oc2ccc(/C(C)=N\O)cc2)cc1 (stereo unspecified)	-1.6%
68	O=C(CSc1nc2ccccc2o1)Nc1ccccc1N1CCCCCC1	-0.2%
69	S=c1[nH]nc(COc2ccc3c(c2)OCO3)n1-c1ccccc1	-15.1%
70	CCOC(=O)COc1cccc2c(=O)n(CC(=O)NCc3ccc4c(c3)OCO4)ccc12	-10.7%
71	O=C(C1CCN(S(=O)(=O)c2cccc3cccnc23)CC1)N1CCN(c2ccccn2)CC1	?
72	COc1cc(C(=O)Nc2ccc3c(c2)OCCO3)ccc1-n1cnnn1	3.1%
73	Cc1cc(C(=O)Nc2c(C)nn(Cc3c(Cl)cccc3Cl)c2C)no1	4.5%
74	COc1cc(C/C=C/c2ccccc2)c(OC)cc1O	5.1%
75	CC(=O)NCCNc1nc(-c2c(C)noc2C)nc2ccccc12	5.5%
76	CC1CCCC(C)N1CCCNC(=O)Cn1cc2c(n1)CCCC2 (stereo unspecified)	5.2%
77	CSc1n[nH]c(NCc2ccccc2)n1	?
78	C[C@@]1(C(NC(=O)c2cccs2)c2ccc(-c3ccccc3)cc2)C[C@H]1C1CCCCC1 (stereo partly specified)	7.5%
79	Cc1nc2ccccn2c1C(=O)NCCCN1CCOCC1	-13.2%
80	COc1ccc(NC(=O)CN(C)S(=O)(=O)c2ccc3c(c2)OCCO3)c2ncccc12	-10.6%
81	COc1ccc2[nH]cc(C(=O)N3CCCCC3)c(=O)c2c1	?
82	O=C(c1cccc(F)c1)N1CCC2(CC1)CN(c1ccccn1)C2	25.1µM*
83	CCc1nnc2sc(-c3ccc(NC(=O)CSc4ccc(Cl)cc4)cc3)nn12	1.7%
84	Nc1cc(S(=O)(=O)C(F)(F)F)ccc1C(=O)O	5.3%
85	Cn1c(=O)c(NC(=O)c2ccccc2)c2n(c1=S)CCCCC2	4.1%
86	CSc1ccc(C(=O)c2[nH]c(=O)[nH]c2C)cc1	?
87	O=C(Nc1ccc(S(=O)(=O)N2CCCCC2)cc1)c1ccncc1	-12.8%
88	CCCc1nc(N)c(C#N)c(-c2cccnc2)c1CC	-6.5%
89	C/C=C/CSc1nc2c(c(=O)[nH]c(=O)n2C)n1C(C)C	4.0%
90	Cc1cc(NC(=O)COC(=O)c2cccc(S(=O)(=O)N3CCOCC3)c2)no1	5.4%
91	CCc1ccccc1NC(=O)c1nnn(CC(=O)Nc2cccc(C)c2C)c1N	?
92	CC1(C)CC(=O)C2=C(C1)OC(=O)C2(NC(=O)c1cccs1)C(F)(F)F (stereo unspecified)	6.6%
93	Cc1ccc2cccc(S(=O)(=O)Nc3ccc4c(c3)OCO4)c2n1	-9.1%
94	CN(CC(=O)Nc1ccc(C#N)cc1)Cc1ccc(Cl)cc1	-11.4%
95	Cn1c(=O)c2c(nc(SCC(=O)NCc3ccco3)n2C)n(C)c1=O	9.7%
96	O=C(O)c1cccc(NS(=O)(=O)c2ccc3nnn(O)c3c2)c1	-6.9%
97	Cc1cc(C)c2cc(CN(CCO)Cc3nnnn3Cc3ccc(F)cc3)c(=O)[nH]c2c1	-0.7%
98	Cc1ccccc1NC(=O)c1ccccc1O	25.1µM*
99	CCCCc1ccc(NC(=O)N[C@H](C(=O)O)C(C)C)cc1	7.1%
100	CC(C)(C)c1ccc(-c2nc(C#N)c(NCc3ccncc3)o2)cc1	25.1µM*
101	Cn1c(=O)n(CC(=O)NCc2cccnc2)c2ccccc21	4.8%
102	CN(C)Cc1ccccc1-c1nc(N2CCOCC2)c2ccccc2n1	3.2%
103	C[C@H]1COC(=O)[C@H]2CCCN2C(=O)[C@@H](C)COC(=O)[C@H](Cc2ccccc2)NC1=O	0.5%[11.4 µM]
104	COc1ccc(C(=O)NC(=O)N2CCCCC2)cc1	8.8%
105	COc1ccc(Br)cc1CNC(=O)CCc1nc(-c2ccccc2F)no1	7.5%
106	O=C(CCCCCN1C(=O)CCC1=O)Nc1ccc2c(c1)OCCO2	-10.3%
107	Cc1ccccc1NC(=O)c1c(O)c2cccc3c2n(c1=O)CCC3	11.0%
108	Cc1cc(NC(=O)Cn2c(=O)n(Cc3ccccc3)c(=O)c3ccccc32)no1	-16.9%
109	Cc1cnc(CNc2ncnc3ccc(-c4ccc(C(=O)N(C)C)cc4)cc23)cn1	?
110	COc1ccc(-c2nnc3sc(-c4cccs4)nn23)cc1OC	-8.0%
111	COC(=O)c1ccccc1NS(=O)(=O)c1ccc(F)cc1	7.2%
112	O=c1ccc2cc3ccoc3cc2o1	31.6µM*
113	CCCOc1ccc2ccccc2c1/C=N/n1cnnc1	2.3%
114	COc1cc(S(=O)(=O)N2CCN(c3ccccc3)CC2)ccc1Cl	3.4%
115	CCSc1cc(C2C(C(=O)OC)=C(C)NC3=C2C(=O)CCC3)c(C)o1 (stereo unspecified)	-14.8%
116	O=C(O)c1ccc(-n2c(-c3ccccc3)n[nH]c2=S)cc1	-0.9%
117	Cc1cccc(C)c1N(CC(=O)Nc1cccc(N(C)S(C)(=O)=O)c1)S(C)(=O)=O	4.4%
118	CCCC(c1nnnn1C1CCCC1)N1CCN(c2ccccc2F)CC1 (stereo unspecified)	-1.1%
119	COc1ccc(C2(C(=O)NCCCN(C)C)CCOCC2)cc1	12.1%
120	Cc1ccccc1-c1nc(N(C)C)c2ccccc2n1	13.5%

# A second format for part of the listing above:
(23) c1ccc(Nc2nc(N3CCOCC3)nc(N3CCOCC3)n2)cc1
  HSD17B inh = 9.1%
(61) O=C(NCc1ccco1)Nc1cccs1
  HSD17B inh = ?
(111) COC(=O)c1ccccc1NS(=O)(=O)c1ccc(F)cc1
  HSD17B inh = 7.2%

# (cont.)
no.	compound	HSD17B inh
121	Cc1ccc(S(=O)(=O)NC(=O)COc2ccccc2C(N)=O)cc1	-5.9%
122	Cc1ccc(NC(=O)C2CCCN(S(=O)(=O)c3c(C)noc3C)C2)nc1 (stereo unspecified)	-0.1%
123	CC(=O)NCCNc1ccnc(-c2ccccc2C)n1	?
124	O=C(c1ccc(F)cc1)C1CCN(C(=O)NCc2ccccc2)CC1	-2.0%
125	CC(C)C(=O)Nc1nnc(SCC(=O)NCc2cccs2)s1	7.7%
126	COc1ccc(C(=O)NCC(C)CN(C)C)cc1 (stereo unspecified)	10.1%
127	CCn1c(C)nc2cc(S(=O)(=O)N3CCCC3)ccc21	-1.1%
128	O=C(CN(c1ccccc1F)S(=O)(=O)c1ccccc1)N1CCCCCC1	5.2%
129	CCOC(=O)c1cc(NC(=O)c2cccnc2)cc(C(=O)OCC)c1	-10.7%
130	O=C(c1cn(-c2ccccc2)nc1-c1cccs1)N1CCN(c2ccccn2)CC1	-11.5%
131	Cc1cc2c(c(N3CCOCC3)n1)C(=O)OC2	?
132	Cc1ccc(-c2nc(-c3cccnc3)no2)cc1	-3.0%
133	CCc1ccc(C(=O)CSc2ncn[nH]2)cc1	?
134	O=C(Nc1cccc(NC(=O)N2CCN(c3ccccc3)CC2)c1)N1CCN(c2ccccc2)CC1	-8.9%
135	CCOC(=O)N1CCC(C(=O)Nc2ccc(OCC)cc2)CC1	7.7%

# A portion of the library; rates above refer to the full screens.
